# TRPV1 PAM – potentiators of human vanilloid receptor 1 (TRPV1); Q8NER1; TRPV1-expressing cells, Fluo-8 calcium influx, capsaicin EC20 potentiation; host cell line not named in the record; control for the full effect not named in the record; potentiation, % at 8.33 µM; actives 0.02% (n = 320,000); active means potentiation above 80%; inconclusive means 30% to 80%; inactive means below 30%; further: 0% is about no effect
# Target sequence (Q8NER1 whole entry, looked up): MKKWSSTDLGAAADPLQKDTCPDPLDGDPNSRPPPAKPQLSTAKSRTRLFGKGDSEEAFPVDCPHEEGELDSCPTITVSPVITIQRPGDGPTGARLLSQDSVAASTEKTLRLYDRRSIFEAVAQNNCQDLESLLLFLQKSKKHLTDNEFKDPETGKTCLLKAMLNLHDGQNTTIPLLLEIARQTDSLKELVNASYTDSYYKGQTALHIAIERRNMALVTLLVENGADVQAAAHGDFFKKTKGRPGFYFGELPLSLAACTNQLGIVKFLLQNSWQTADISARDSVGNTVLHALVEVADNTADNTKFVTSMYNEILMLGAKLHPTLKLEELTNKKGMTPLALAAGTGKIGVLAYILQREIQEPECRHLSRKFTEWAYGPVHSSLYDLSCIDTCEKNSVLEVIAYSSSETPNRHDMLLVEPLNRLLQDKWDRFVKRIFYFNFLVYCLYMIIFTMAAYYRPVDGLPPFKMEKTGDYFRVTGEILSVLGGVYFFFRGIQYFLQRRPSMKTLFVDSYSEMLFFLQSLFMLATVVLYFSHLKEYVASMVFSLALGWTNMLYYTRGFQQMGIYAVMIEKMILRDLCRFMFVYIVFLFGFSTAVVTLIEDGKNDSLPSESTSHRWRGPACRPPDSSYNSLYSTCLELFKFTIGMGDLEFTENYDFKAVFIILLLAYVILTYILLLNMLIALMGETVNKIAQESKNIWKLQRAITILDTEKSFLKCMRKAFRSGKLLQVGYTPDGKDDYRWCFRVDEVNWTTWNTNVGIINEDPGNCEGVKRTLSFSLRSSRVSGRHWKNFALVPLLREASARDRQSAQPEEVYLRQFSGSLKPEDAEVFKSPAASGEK
#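 Fluo-8 calcium influx in TRPV1-expressing cells, kinetic read (ex 480/em 520 nm). Compound added and read 3 min for agonist activity, followed by capsaicin at EC20 final and 2 min further read for enhancement.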
# Sfp inh – blocks B. subtilis Sfp PPTase activity. Q9F4F7. Biochemical Sfp PPTase activity, qHTS. Potency, µM, for inactives: max response, negative = inhibition, actives largely listed as inhibitors. actives 3.5% (n = 310,000). AID 1490; active means well fitted inhibition curve with a large enough effect; inconclusive means small, poorly fitted or top-dose-only effect, or another doubt; inactive means no such curve, though single readings can be large or run the other way;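 further: the enzyme is Sfp with the accession as filed and its product quenches rhodamine fluorescence; potency means the concentration at half of the fitted maximal effect; 0% = enzyme reaction without inhibitor and -100% = no enzyme wells; top concentration of the series not given in the record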
#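 Fluorescence-quenching assay with 15 nM Sfp, 5 uM rhodamine-CoA and 12.5 uM BHQ-2-labelled ybbR peptide in pH 7.6 Hepes/MgCl2 buffer. Enzyme was pre-incubated with compound for 15 min at room temperature. Rate was taken from the 30-min fluorescence change (525/598 nm).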
# * = called active by the depositor; i = inactive; ? = inconclusive; & = joins results of further samples. This is a subset. The share of hits here may be higher or lower than overall.
SMILES,TRPV1 PAM,Sfp inh
Fc1cccc(-n2c(-c3cccs3)nc3nc4ccccc4nc32)c1,-7,7%
CCCn1c2c(c(O)c(C(=O)Nc3nc(C)cs3)c1=O)CCCC2,-8,2%
Cc1nnc(NC(=O)CSc2ccc(-c3ccccn3)nn2)s1,-12,?
CCN(CC)C(=O)C1=C(C)NC(=O)NC1c1ccccc1F (stereo unspecified),-6,14%
N#CC1=C(N)SC(N)=C(C#N)C1c1ccc(C(F)(F)F)cc1,11,-80%
Cc1ccc(Oc2ccc(-c3nnc(-c4ccccc4)o3)cc2[N+](=O)[O-])cc1C,0,-7%
O=C(NCCN1CCOCC1)c1cc(Cl)ccc1[N+](=O)[O-],-16,1%
Cc1ccc(C)c(C(C)NC(=O)C2C3CCC(O3)C2C(=O)O)c1 (stereo unspecified),3,14%
CCc1c(C)nc(N)n2c(SCC(=O)N3CCN(c4ccccc4OC)CC3)nnc12,5,18%
CCCCn1c(C)cc2c(c1=O)C1O[C@](c3ccsc3)(Cc3cc(OC)c(OC)cc31)O2,i,-9%
COc1cccc([C@@H]2Oc3ccc(OC)cc3C(=O)[C@H]2OC(=O)N[C@H](C)C2CCCCC2)c1,-9,-22%&-10%
Cn1c(-c2nonc2NC(=O)c2ccc(C(C)(C)C)cc2)nc2ccccc21,-4,3%
O=C(NCCCCCCNC(=O)NCc1ccco1)NCc1ccco1,-1,0%
Cc1cc(C)c2nc(NC3=NCN(CCN4CCOCC4)CN3)nc(C)c2c1,6,-3%
Cc1nc(-c2ccccc2)sc1-c1nc(-c2cccs2)ncc1S(=O)(=O)c1ccccc1,18,18%
Cc1nnc(NC(=O)CSc2nnc(Cc3cccn3C)n2-c2cccc(C)c2C)s1,29,-3%
CSc1nc(-c2ccco2)nn1C(=O)c1ccc(Cl)cc1,-4,9%
Cc1ccc(S(=O)(=O)N(CC(=O)NCCSCc2ccco2)c2ccc(F)cc2)cc1,17,56µM*
N#Cc1c(-c2ccccc2Cl)cc(-c2ccccc2)[nH]c1=S,-8,-26%
COc1ccccc1C1=Nn2c(COc3ccccc3)nnc2SC1,-18,14µM*
CCOc1cc(CNc2ccc3c(c2)CCC3)ccc1OC,8,4%
COc1cccc(CC(NC(C)=O)C(=O)NC2CCN(c3ncccc3[N+](=O)[O-])CC2)c1 (stereo unspecified),5,8%
CC(=O)c1ccc(N2CCN(CC(=O)Nc3ccc(N4CCOCC4)cc3)CC2)cc1,-9,4%
Cn1/c(=N/N=C/c2ccc([N+](=O)[O-])cc2)sc2ccccc21,-9,2%
COC(=O)c1ccc(CSc2ccc3nnc(-c4ccc(OC)cc4)n3n2)o1,2,11%
Cc1ccnc(SCCn2c(N3CCCCC3)nc3c2c(=O)[nH]c(=O)n3C)n1,1,6%
CCN1CCN(Cc2nc3c(c(=O)n(C)c(=O)n3C)n2Cc2ccccc2Cl)CC1,3,7%
CSCCC(NC(=O)c1ccccc1)C(=O)Nc1ccc(NC(C)=O)cc1 (stereo unspecified),-7,3%
CC(C)c1ccc(N2CCN(C(=O)c3ccccc3NC(=O)/C=C(\C(=O)O)c3ccccc3)CC2)cc1,-7,56µM*
CC(C(=O)Nc1ccccc1F)N1CCN(C)CC1 (stereo unspecified),-4,?
Cc1cc2oc(=O)cc(Cn3nnc(-c4ccc(Cl)cc4)n3)c2cc1C(C)C,1,0%
CCCc1nc(SCC(=O)c2ccc(OC)cc2)c2c(=O)n(C)c(=O)n(C)c2n1,-4,9%
CCOC(=O)c1cnc(-n2nc(C)cc2C)nc1Nc1ccccc1OC,-3,12%
Cc1cc2ncn(/N=C/c3cc(Br)ccc3O)c2cc1C,28,16%
CCN(CC)CCN1C(=O)C(O)=C(C(C)=O)C1c1ccccc1 (stereo unspecified),8,23%
C#CCOCCOCCOCCNc1nc(N2CCN(C(=O)[C@H](Cc3ccc(O)cc3)n3cc([C@@H](N)C(C)CC)nn3)CC2)nc(N2CCN(C(=O)[C@H](Cc3cc4ccccc4[nH]3)n3cc([C@@H](N)Cc4ccc(O)cc4)nn3)CC2)n1 (stereo partly specified),0,56µM*
Cc1ccc(-c2ccc(SCC(=O)N3CCc4ccccc43)nn2)cc1,3,14%
Cc1cc(/C=C(\C#N)c2nnc(N3CCOCC3)n2-c2ccccc2)c(C)n1-c1ccccc1,1,-14%
NCc1c(O)ccc2ccccc12,17,13%
O=C1c2ccccc2C(=O)C12OC2c1ccc(Cl)cc1 (stereo unspecified),-6,?
Cc1ccc2c(c1)C(c1ccncc1)=NNC(c1ccc(C(C)C)cc1)=N2,-15,22%
O=C(Oc1ccc([N+](=O)[O-])cc1)c1ccc(Cl)c(S(=O)(=O)N2CCCCC2)c1,1,-24%
Brc1ccc(/C=N/Nc2nncc(-c3ccccc3)n2)o1,-6,19%
O=C(Nc1cc(Cl)cc(Cl)c1)C(NCCCO)c1ccccc1 (stereo unspecified),-15,-8%
COc1ccc2cc(C(c3nnnn3C(C)(C)C)N3CCc4ccccc4C3)c(=O)[nH]c2c1 (stereo unspecified),7,?
Cc1nc2ccccc2n1CCc1nc2c3ccccc3nc(SCC#N)n2n1,-4,12%
O=C(OCn1ncc(Br)c(Br)c1=O)c1c(F)cccc1F,18,-11%
O=C(N=Nc1c(O)n(C2OC(=O)c3ccccc32)c2ccccc12)c1ccco1 (stereo unspecified),4,3%
COc1cccc(-c2nnc3sc(-c4ccc(Cl)cc4)nn23)c1,3,5%
Cc1ccc(Nc2nc(N)nc(CN3CCN(C)CC3)n2)cc1C,-5,-7%
O=c1[nH]c(CSc2nnc3ccccn23)nc2cc(C(F)(F)F)ccc12,3,19%
Cc1cccn2c(=O)c3cc(C#N)c(=N)n(Cc4ccncc4)c3nc12,-2,9%
CC(=O)N1CCc2cc(C(=O)CN3CCCN(Cc4ccc(F)cc4)C3)ccc21,-6,8%
COc1cc2nc(CN3CCN(C(c4ccccc4)c4ccccc4)CC3)[nH]c(=O)c2cc1OC,12,10%
COc1ccccc1N1CCN(C(=O)COc2ccc(S(=O)(=O)NC(C)(C)C)cc2)CC1,3,21%
CC(NC(=O)c1cc(-c2ccccc2)nc2ccccc12)C1CCCO1 (stereo unspecified),-7,13%
CC(NC(=O)c1cc(=O)[nH]c2ccc(Br)cc12)c1ccccc1 (stereo unspecified),8,18%
Cc1ccc(S(=O)(=O)Nc2c(Cl)c(Cl)c(O)c3ccccc23)cc1,16,45µM*
O=C(Sc1cccc2cccnc12)c1ccccc1Br,-1,?
CC(C)=NOCc1ccc(-c2cn([C@@H]3COC[C@H]3O)nn2)cc1,1,14%

# (more compounds)
SMILES,TRPV1 PAM,Sfp inh
Clc1ccc(NCc2ccsc2)cc1,18,-17%
COc1cccc(C(=O)Nc2ccc3nc(N4CCN(c5ncccn5)CC4)cc(C)c3c2)c1OC,-27,-8%
COc1ccc2oc(=O)c(C(=O)OCC(=O)c3ccc([N+](=O)[O-])cc3)cc2c1,-12,-18%
O=C(CSC1=NC(=O)C(Cc2ccccc2)C(=O)N1)Nc1ncccn1 (stereo unspecified),2,-5%
N#CC(C(=O)NC1CCCCC1)c1nc2ccccc2nc1N1CCN(c2ccc(F)cc2)CC1 (stereo unspecified),-4,?
CC(C)c1ccccc1NS(C)(=O)=O,11,7%
CCOC(=O)c1[nH]c2ccc(F)cc2c1NC(=O)CN1CCc2cc(OC)c(OC)cc2C1,-13,-2%
CCOC(=O)c1cc2c(=O)n3ccccc3nc2n(Cc2ccccc2Cl)c1=N,-2,-2%
Nc1nc(CSc2nc3ccccc3s2)nc(Nc2ccccc2)n1,3,-17%
O=c1c2c(nc3nc(NCc4ccccc4Cl)[nH]n13)CCC2,6,25%
O=C1C2C3C=CC(C3)C2C(=O)N1CNc1ccc(O)cc1 (stereo unspecified),5,56µM*
Cc1cc(C)cc(N(C(=O)CCC(=O)Nc2ccccn2)C(C(=O)NC(C)C)c2ccc(O)cc2)c1 (stereo unspecified),0,11%
COC(=O)c1ccccc1NC(=O)C/C(C)=N/NC(=O)Cc1ccc(Cl)cc1,-4,9%
N/C(Cc1cccc2ccccc12)=N\OC(=O)c1ccc(Br)o1,18,-15%
O=C(O)CCN=C1CCc2ccccc2N1,7,20%
CC1(C)N=C(N)N=C(N)N1c1ccc(C(=O)O)cc1,1,9%
CCOCC(=O)Nc1ccc(C(=O)Nc2ccccc2Cl)cc1,5,-3%
CN(C)CCN1C(=O)c2oc3ccccc3c(=O)c2C1c1ccccc1 (stereo unspecified),-2,5%
N#CC1=C(N)N2C(=C(C#N)C1c1ccccc1)Sc1ccccc12 (stereo unspecified),-1,?
COc1ccc(O[C@H]2C=C[C@@H](c3ccccc3)O[C@@H]2CO/N=C(\C)CCC(=O)OC[C@H]2O[C@H](c3ccccc3)C=C[C@@H]2Oc2ccc(OC)cc2)cc1,7,-5%
CCOC(=O)c1sc2ncn(/N=C/c3ccccn3)c(=O)c2c1C,2,2%
CCCCC(=O)N(Cc1ccc(-c2ccccc2-c2nn[nH]n2)cc1)[C@H](C(=O)O)C(C)C,12,3%
COc1ccc2cc(/C(C)=N/NC(=S)Nc3cc(S(=O)(=O)N4CCOCC4)ccc3N3CCOCC3)ccc2c1,6,-7%
O=C(NC1CCCCC1)NC1CC2CCC(C1)N2C(=O)NC1CCCCC1 (stereo unspecified),9,16%
Clc1cccc(-c2nn3c(-c4ccncc4)nnc3s2)c1,6,9%
CCCCCCCCCCC(=O)NNC(=O)c1c(O)c2ccccc2n(CC)c1=O,1,19%
O=C(O)C1CCCN1S(=O)(=O)c1cccs1 (stereo unspecified),6,4%
O=C1Nc2ccccc2N2CCCC12 (stereo unspecified),0,-11%
Cc1ccc(C)c(NC(=O)/C(C#N)=C/c2ccc(Sc3nncn3C)c([N+](=O)[O-])c2)c1,?,1%
CC1=NN(c2ccccc2)C(=O)C1N=Nc1ccc(C)cc1 (stereo unspecified),9,9%
O=c1ccc2cc3c([nH]c4ccc(Br)cc43)oc-2c1O,?,22µM*
Cc1ccc(NC(=O)c2ccc3ncsc3c2)cc1S(=O)(=O)N(C)C,15,56µM*
NC(=O)N=Nc1c(O)[nH]c2c(Br)cc(Br)cc12,-8,17%
Cn1cc(NC(=O)c2cc(NC(=O)c3cc(NC=O)cn3C)cn2C)cc1C(=O)NCCC(=N)N,-7,-11%&13%
O=C(c1ccccc1)[C@H]1[C@H](c2ccccc2)[C@@]2(N=C(c3ccccc3)OC2=O)C2c3ccccc3C=NN21 (stereo partly specified),-22,-2%
O=c1oc2ccccc2cc1-c1csc(Nc2nc3ccc(F)cc3s2)n1,-3,-11%
CC1(C)Oc2ccc3ccc(=O)oc3c2/C(=C/NCCN/C=C2\C(=O)C(C)(C)Oc3ccc4ccc(=O)oc4c32)C1=O,-7,-14%
CCN1CCN(Cc2ccc3c(c2)Cc2ccccc2-3)CC1,23,-9%
CC1(C(=O)NC(=S)N(CCC#N)Cc2cccnc2)CC1(Cl)Cl (stereo unspecified),4,0%
O=c1c(-c2ccccc2)c1-c1ccccc1,-6,13%&16%

# Shown with two lines to a compound: entries from further up
# Below each SMILES – TRPV1 PAM | Sfp inh
> Fc1cccc(-n2c(-c3cccs3)nc3nc4ccccc4nc32)c1
 : -7 | 7%
> CCCn1c2c(c(O)c(C(=O)Nc3nc(C)cs3)c1=O)CCCC2
 : -8 | 2%
> Cc1nnc(NC(=O)CSc2ccc(-c3ccccn3)nn2)s1
 : -12 | ?
> CCN(CC)C(=O)C1=C(C)NC(=O)NC1c1ccccc1F (stereo unspecified)
 : -6 | 14%
> N#CC1=C(N)SC(N)=C(C#N)C1c1ccc(C(F)(F)F)cc1
 : 11 | -80%
> Cc1ccc(Oc2ccc(-c3nnc(-c4ccccc4)o3)cc2[N+](=O)[O-])cc1C
 : 0 | -7%
> O=C(NCCN1CCOCC1)c1cc(Cl)ccc1[N+](=O)[O-]
 : -16 | 1%
> Cc1ccc(C)c(C(C)NC(=O)C2C3CCC(O3)C2C(=O)O)c1 (stereo unspecified)
 : 3 | 14%
> CCc1c(C)nc(N)n2c(SCC(=O)N3CCN(c4ccccc4OC)CC3)nnc12
 : 5 | 18%
> CCCCn1c(C)cc2c(c1=O)C1O[C@](c3ccsc3)(Cc3cc(OC)c(OC)cc31)O2
 : i | -9%
> COc1cccc([C@@H]2Oc3ccc(OC)cc3C(=O)[C@H]2OC(=O)N[C@H](C)C2CCCCC2)c1
 : -9 | -22%&-10%
> Cn1c(-c2nonc2NC(=O)c2ccc(C(C)(C)C)cc2)nc2ccccc21
 : -4 | 3%
> O=C(NCCCCCCNC(=O)NCc1ccco1)NCc1ccco1
 : -1 | 0%
> Cc1cc(C)c2nc(NC3=NCN(CCN4CCOCC4)CN3)nc(C)c2c1
 : 6 | -3%
> Cc1nc(-c2ccccc2)sc1-c1nc(-c2cccs2)ncc1S(=O)(=O)c1ccccc1
 : 18 | 18%
> Cc1nnc(NC(=O)CSc2nnc(Cc3cccn3C)n2-c2cccc(C)c2C)s1
 : 29 | -3%

# (list continues)
SMILES,TRPV1 PAM,Sfp inh
CCCCc1c(C)c(C#N)c2nc3ccccc3n2c1Cl,3,-1%
Cc1nc(NC2=NCN(Cc3ccco3)CN2)nc2ccccc12,9,17%
CCn1c(=O)c(C(=O)Nc2cnccn2)c(O)c2ccccc21,-4,4%
COc1ccc(Nc2cc(C(=O)NCc3cccnc3)c3ccccc3n2)c(OC)c1,-9,6%
CCOC(=O)C1=C(C)NC(SCC(=O)Nc2nc(C)cs2)=C(C#N)C1c1cccs1 (stereo unspecified),5,?
Cc1ccc(C(=O)Oc2oc(-c3ccco3)nc2C=Nc2ccccc2)cc1,-20,45µM*

# From PubChem
